# PINK1 expr mod: modulators of PINK1 expression. PINK1 immunofluorescence, high-content cytometry, 24 h. hit rate 0.2% among 410,000. Potency, µM (highest dose often 76.6 µM), for inactives: at the highest dose activation (PINK1 increase), usual class: activators; active = well fitted activation curve with a large enough effect; inconclusive = small, poorly fitted or top-dose-only effect; inactive = flat fitted curve, though single readings scatter; cell line not stated here;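 also: potency is read from the fitted curve at half-maximal effect; % of control where 0% means no effect; nearly all actives have a fitted effect of over 65% in size; a mitochondrial uncoupler was the plate control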
#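 Measures PINK1 amount and localization on or inside mitochondria by immunofluorescence. Stable cells get compounds at 5 concentrations for 24 hours before fixation and staining; CCCP controls included.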
# D2 PAM: potentiates the human D2 dopamine receptor allosterically; P14416; DiscoveRx D2 beta-arrestin cells, luminescence, 90 min; 100% = 57 uM dopamine signal; potentiation, % (concentration not given with the values); hit rate 0.23% among 360,000; active = potentiation of 50% or more; inconclusive = 30% to 50%; inactive = 30% or less;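 also: compound concentration not given in the record; tested on top of an EC20 dose of dopamine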
# Target sequence (P14416 whole entry, looked up): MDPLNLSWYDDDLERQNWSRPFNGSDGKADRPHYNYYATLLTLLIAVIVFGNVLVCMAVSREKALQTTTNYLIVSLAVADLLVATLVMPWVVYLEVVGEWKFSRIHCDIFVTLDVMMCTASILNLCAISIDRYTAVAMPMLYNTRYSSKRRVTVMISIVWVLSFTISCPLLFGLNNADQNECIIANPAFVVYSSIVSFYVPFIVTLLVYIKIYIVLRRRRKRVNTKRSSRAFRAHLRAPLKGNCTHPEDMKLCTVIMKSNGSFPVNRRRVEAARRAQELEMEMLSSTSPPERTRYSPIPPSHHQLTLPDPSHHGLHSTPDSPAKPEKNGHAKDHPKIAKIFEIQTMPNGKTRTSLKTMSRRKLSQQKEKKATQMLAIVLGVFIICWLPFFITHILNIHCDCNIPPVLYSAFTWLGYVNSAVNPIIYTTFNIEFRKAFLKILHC
#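 PathHunter beta-arrestin assay in DiscoveRx D2 cells. Compounds were added with an EC20 of dopamine (50 nM final) for 90 min at 37 deg C. Luminescence was read 1 h after detection reagent, with 57 uM dopamine as the EC100 control.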
# CtBP-E1A inh: inhibitors of CtBP/E1A interaction; activity change, % (no concentration beside the values); AlphaScreen GST-E1A/His-CtBP binding, 1536-well; hits give low values; control for the full effect not named in the record; hit rate 0.49% among 340,000; in the data active means activity change below about -65%; inconclusive means about -30% to -65%; inactive means above about -30%; also: % is scaled to controls: 0 for no effect and ±100 for the full control effect; compound concentration not given in the record
#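 Homogeneous bead-based format: GST-tagged E1A captured on glutathione donor beads, His-tagged CtBP on nickel acceptor beads; compounds precede bead addition by 2 h at 37 °C.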
# Six1-Eya2 blk: inhibitors of human Six1/Eya2 interaction. Q15475+O00167. AlphaScreen GST-Six1/His-Eya2 binding, biochemical; hits give low values; control for the full effect not named in the record. activity change, % (concentration not given with the values). hit rate 0.56% among 360,000; in the data active = activity change below about -65%; inconclusive = about -30% to -65%; inactive = above about -30%; also: % is scaled to controls: 0 for no effect and ±100 for the full control effect
#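 Six1/Eya2 binding was read as AlphaScreen signal after compounds were pinned into GST-Six1 plus His-tagged Eya2 (5X stock 250/500 nM) in pH 8.0 Tris/NaCl/TCEP buffer, beads added, then incubated 1 h, 37 C, dark.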
# D2 agonist: human D2 receptor agonism in beta-arrestin assay. P14416. DiscoveRx PathHunter D2 beta-arrestin, luminescence, 90 min; 100% = 57 uM dopamine signal. activation, % (no concentration beside the values). hit rate 0.084% among 360,000; in the data active = activation above about 40%; inconclusive = about 15% to 40%; inactive = below about 15%; also: compound concentration not given in the record; the text of the record calls up to 30% inactive
#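 Agonist mode: compounds alone added to overnight-plated D2 PathHunter cells for 90 min at 37 C, with 57 uM final dopamine (EC100) defining full response. Beta-arrestin recruitment detected by chemiluminescent reagent, read after 1 h at ambient temperature.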
# TRPML1 agonist: agonists of human TRPML1 channel | hit rate 0.12% among 410,000 | Q9GZU1 | TRPML1-expressing cells, Ca2+ dye fluorescence, FDSS; host cell line not named in the record; reference of the full effect not given here | activation, % (concentration not given with the values); in the data active = activation above about 50%; inconclusive = about 30% to 50%; inactive = below about 30%; also: 0% is about no effect; the text of the record puts the active cut at 80%
# Target sequence (Q9GZU1 whole entry, looked up): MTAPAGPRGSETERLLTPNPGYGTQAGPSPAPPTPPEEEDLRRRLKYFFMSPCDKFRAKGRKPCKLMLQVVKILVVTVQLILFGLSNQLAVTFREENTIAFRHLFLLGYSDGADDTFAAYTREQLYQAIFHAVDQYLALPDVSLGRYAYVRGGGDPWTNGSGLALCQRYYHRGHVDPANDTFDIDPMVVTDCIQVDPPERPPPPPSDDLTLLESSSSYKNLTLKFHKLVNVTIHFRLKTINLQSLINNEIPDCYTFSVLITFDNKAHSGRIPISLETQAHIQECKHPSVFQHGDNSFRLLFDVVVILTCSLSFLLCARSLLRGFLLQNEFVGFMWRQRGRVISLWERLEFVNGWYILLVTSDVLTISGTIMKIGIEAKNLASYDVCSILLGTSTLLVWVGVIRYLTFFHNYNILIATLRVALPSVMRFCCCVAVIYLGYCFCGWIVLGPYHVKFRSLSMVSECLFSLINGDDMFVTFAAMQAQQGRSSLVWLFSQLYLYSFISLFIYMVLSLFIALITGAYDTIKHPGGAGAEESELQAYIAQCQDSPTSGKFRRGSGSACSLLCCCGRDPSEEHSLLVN
#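 Calcium fluorescence on an FDSS kinetic reader gave the read-out. Tet-induced TRPML1-DL cells were plated overnight, dye-loaded (Ca8 with quencher, 45-90 min, room temperature, dark), then read 110 s after compound addition, and again 110 s after 4uM final 54-4 (EC80).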
# The depositor's hits bear a star; ? = inconclusive; . = not tested or not shown; & = joins results of further samples; [ ] = remark or other dose.
SMILES,PINK1 expr mod,D2 PAM,CtBP-E1A inh,Six1-Eya2 blk,D2 agonist,TRPML1 agonist
NS(=O)(=O)c1ccc(NCc2c(F)cccc2Cl)cc1,5.3%[38.3 µM],-11,4,2,1.2,0.9
O=C(OCc1nc2ccccc2[n+]([O-])c1C(=O)c1ccccc1)c1cccnc1,0.1%,-3,0,-1,-5.4,-0.9
CC(C)c1ccc(/C=N/Nc2ccc(C(=O)O)cc2)cc1,8.6%,-4,2,0,-5.5,2.3
CC(Cc1c[nH]c2ccccc12)NC(N)=O (stereo unspecified),-1.4%,-2,-7,32,-4.5,-1.1
CCc1cccc(NC(=O)CSCc2cc(=O)[nH][nH]2)c1,3.0%[38.3 µM],-20,-20,-17,-1.8,-0.2
COc1ccc(CCN(Cc2cccs2)S(=O)(=O)c2ccc(C(=O)O)cc2)cc1OC,-0.9%,-1,21,2,-6.5,-0.2
O=S(=O)(N/N=C/c1ccc2c(c1)OCO2)c1ccc(Br)cc1,-0.1%,-2,0,-4,-4.1,-0.2
Cc1ccc(S(=O)(=O)N2CCN(C(=O)COC(=O)Cc3ccc(Cl)cc3)CC2)c(C)c1,1.9%,2,.,-1,-1.6,-0.8
CC(=O)c1ccc(NC(=O)c2ccc(S(=O)(=O)c3ccccc3)cc2)cc1,5.6%,17,0,-15,12,0.3
CCn1cc(C(=O)NC2CCCCCC2)c(=O)c2cc(S(=O)(=O)N3CCCCC3)ccc21,0.5%,-1,-1,8,-6.2,0.5
COCCn1c(N)c(N(Cc2ccccc2)C(=O)c2cc(=O)[nH]c3ccccc23)c(=O)[nH]c1=O,0.0%,-12,1,7,-0.3,-0.4
Cc1ccc(-n2[nH]c3c4c(ccc3c2=O)C(=O)c2ccccc2C4=O)cc1,0.9%,0,-2,1,-0.9,0.1

# A second format for part of the listing above:
Cc1ccc(S(=O)(=O)N2CCN(C(=O)COC(=O)Cc3ccc(Cl)cc3)CC2)c(C)c1
  PINK1 expr mod = 1.9%; D2 PAM = 2; CtBP-E1A inh = .; Six1-Eya2 blk = -1; D2 agonist = -1.6; TRPML1 agonist = -0.8
CC(=O)c1ccc(NC(=O)c2ccc(S(=O)(=O)c3ccccc3)cc2)cc1
  PINK1 expr mod = 5.6%; D2 PAM = 17; CtBP-E1A inh = 0; Six1-Eya2 blk = -15; D2 agonist = 12; TRPML1 agonist = 0.3
CCn1cc(C(=O)NC2CCCCCC2)c(=O)c2cc(S(=O)(=O)N3CCCCC3)ccc21
  PINK1 expr mod = 0.5%; D2 PAM = -1; CtBP-E1A inh = -1; Six1-Eya2 blk = 8; D2 agonist = -6.2; TRPML1 agonist = 0.5

# (next part)
SMILES,PINK1 expr mod,D2 PAM,CtBP-E1A inh,Six1-Eya2 blk,D2 agonist,TRPML1 agonist
COc1ccc(/C=N/n2cncn2)cc1CSc1ccccn1,-0.3%,6,-7,-1,-0.4,0.0
COc1ccc(CNC(=O)CCNC(=O)c2ccco2)cc1OC,7.3%,10,-16,6,0.8,0.7
O=C(C[C@@H]1C/C=C/CCCC(=O)O[C@H](c2ccccc2)CNC1=O)NCCO,-0.4%,-7,1,11,-2.1,-0.7
CC(=O)c1ccc(NC(=O)C2CC(=O)Nc3nc4ccccc4n32)cc1 (stereo unspecified),-0.8%,1,.,2,1.5,0.2
CCC(CC)NC(=O)CCCSc1nc2ccccc2[nH]1,-1.0%,-3,1,0,-0.9,1.9
Cc1onc(-c2ccccc2)c1C(=O)N1CCN(S(=O)(=O)c2ccccc2C(F)(F)F)CC1,14%,-10,-20,-4,-8.7,-0.9
COc1ccc(/C=C2\Oc3cc(OCC(=O)N4CCC[C@H]4CO)ccc3C2=O)c(OC)c1,2.1%,0,-1,1,2.0,-0.1
COc1cccc(C(C)(O)c2nc(-c3cc(F)cc(F)c3)cs2)c1 (stereo unspecified),4.5%,-1,9,5,8.6,0.1
CCc1nnc(NC(=O)COc2ccccc2[N+](=O)[O-])s1,-0.1%,-19,.,3,-6.6,-0.6
COc1ccccc1C(=O)Nc1cc2c(cc1C(=O)O)OCCCO2,-2.1%,-2,14,12,-3.5,0.0
COn1c(=O)c(-c2ccc(Cl)cc2)[n+]([O-])c2ccccc21,-0.1%,-10,5,1,-4.9,-1.2
CCn1c(Oc2ccccc2)nc2c1c(=O)n(C)c(=O)n2C,-1.5%,-6,-6,-8,-4.4,0.4
CC(C)C(C(=O)NC1=NCCS1)c1ccc(Cl)cc1 (stereo unspecified),4.9%,2,-10,2,-4.2,-0.4
CSCCC(NC(=O)c1ccccc1Br)C(=O)Nc1ccc(C)cc1 (stereo unspecified),0.7%,-12,3,6,3.3,0.1
Cn1c(CN2CCOCC2)nnc1SCC(=O)NCCc1ccccc1,-3.0%,-2,5,3,-3.4,0.1
COc1cc(OC)cc(C(=O)OCC(=O)c2cc(C)n(CC3CCCO3)c2C)c1 (stereo unspecified),-1.7%,-4,-18,-8,13,1.1
Cn1c(=O)c2cc(NC(=O)CCc3cccnc3)ccc2n1Cc1cccc(C(F)(F)F)c1,0.7%,-9,-5,1,-6.3,-0.6
CCc1ccc(NC(=O)CN(c2ccccc2)S(=O)(=O)N(C)C)cc1,1.1%,-12,-12,-10,-2.3,0.5
Cc1cc[n+]2c3c(cccc13)CCC2,5.4%[38.3 µM],-9,9,1,-0.4,2.0
CCN(CC(=O)NCc1ccc(F)cc1)CC(O)COCc1cccc(OC)c1 (stereo unspecified),-1.8%,-2,0,8,0.8,-1.1
CCOc1cc(S(=O)(=O)N2CCN(S(=O)(=O)CC)CC2)c(OCC)cc1-n1cnnn1,1.8%,-4,6,4,3.6,-0.4
CC1CC(C)(C)NC(=S)N1CC(=O)NCc1ccc(Cl)cc1 (stereo unspecified),0.1%,0,-3,2,-1.4,0.3
COc1ccccc1/C=C(/C(=O)OCC(=O)N(C)Cc1ccccc1)c1ccccc1,-0.6%,-6,3,-1,2.0,4.4
Cc1ccc(-c2nc(C)sc2CC(=O)O)cc1,2.3%,-5,5,4,-3.9,-0.3
COc1cccc(NC(=O)NCCN2CCCCC2)c1,0.8%,-3,8,-2,-6.2,-0.5
FC(F)(F)c1cccc(-c2nc3nc(Cl)c(Cl)nc3[nH]2)c1,2.8µM*,-29,.,4,5.0,5.7&0.1
COc1ccc(CC(=O)OCC(=O)Nc2c(C)n(C)n(-c3ccccc3)c2=O)cc1,-1.6%,-25,5,3,1.1,-0.4
O=C(C1CCC1)N1CCN(c2ccccc2)CC1,1.4%,-1,-2,2,-1.7,-0.1
CC1Oc2ccc(C#N)cc2N(Cc2cccc(F)c2)C1=O (stereo unspecified),2.6%,-4,-11,7,-3.4,-1.1
O=C(CN(Cc1cccs1)C(=O)CSc1nnc(COc2ccccc2)o1)NC1CCCCC1,-0.1%,-7,4,-3,-1.0,0.3
C/C(=N\N=C(N)N)c1ccc(Cl)cc1,4.5%,-28,0,8,-2.6,2.5
COc1ccccc1-c1cc(NC=O)c2ncc(-c3cccc(C(F)(F)F)c3)n2c1,1.7%,-9,2,-1,-6.4,-0.4
O=C(O)CCC(=O)N1N=C(c2ccc(Br)cc2)CC1c1ccc(Br)cc1 (stereo unspecified),-1.6%,1,7,2,-0.6,0.1
COc1ccc(S(=O)(=O)N2CCCCCC2)cc1C(=O)N(C)CC(=O)Nc1ccccc1Cl,-0.2%,-12,9,2,2.7,-0.6
Cc1ccc2nc(NC(=O)c3cc(-c4ccco4)nc4ccccc34)sc2c1,-0.8%,-17,-10,1,2.2,-0.4
CCN1CCN(S(=O)(=O)c2ccc(-c3cc(C)no3)s2)CC1,-0.5%,2,4,-1,-0.4,-0.7
CC(=O)c1c(C)[nH]c(C(=O)/C(C#N)=C/c2cccc(C)c2)c1C,0.9%,-8,-8,-2,-2.2,1.0
CC1=NN(C(=O)c2ccoc2C)C(O)(C(F)(F)F)C1 (stereo unspecified),-1.2%,-11,4,6,-1.7,0.4
O=C(Cn1ccc2ccccc2c1=O)NCC1COc2ccccc2O1 (stereo unspecified),2.2%,-6,1,-2,-2.8,1.0
CC(C(=O)Nc1ccc(Cl)cc1Cl)N1C(=O)NC2(CCCC2)C1=O (stereo unspecified),6.7%,-2,2,-2,-1.4,0.3
CCOc1cc(CNc2ccccc2)cc(Br)c1OCC(=O)NC(C)(C)C,-1.1%[38.3 µM],1,-3,-23,1.6,2.9
COCC1CCCCN1C(=O)c1ccc(OC2CCN(CCc3ccccc3)CC2)cc1 (stereo unspecified),-0.5%,-32,0,-5,-5.5,0.5
Oc1ccc(Cc2ccccc2)c2cccnc12,3.9%,-4,-92*,-75*,-2.8,1.8
CCOc1ccc(NS(=O)(=O)c2ccc(OCC)c3ncccc23)cc1,20%[38.3 µM],-7,-16,-10,1.0,-0.5
COc1cccc(-c2nc(CS(=O)CC(=O)NC3CC3)c(C)o2)c1 (stereo unspecified),-1.1%,-3,-8,5,-6.2,-0.1
Cc1onc(-c2ccccc2)c1-c1nc2ccccc2c(=O)o1,3.5%,-11,5,4,-14,0.3
COCCn1c(C)cc(C2=NNC(=Nc3ccc(OC)cc3)SC2)c1C,1.8%[38.3 µM],-7,-11,-8,0.2,-0.1
CSC1=NCCN1C(=O)Cc1ccc(F)cc1,2.4%,-7,4,-1,-2.9,-0.5

# The last 3 compounds of the part before lead into the next.
SMILES,PINK1 expr mod,D2 PAM,CtBP-E1A inh,Six1-Eya2 blk,D2 agonist,TRPML1 agonist
Cc1onc(-c2ccccc2)c1-c1nc2ccccc2c(=O)o1,3.5%,-11,5,4,-14,0.3
COCCn1c(C)cc(C2=NNC(=Nc3ccc(OC)cc3)SC2)c1C,1.8%[38.3 µM],-7,-11,-8,0.2,-0.1
CSC1=NCCN1C(=O)Cc1ccc(F)cc1,2.4%,-7,4,-1,-2.9,-0.5
NNC(=O)COc1ccc(C(F)(F)F)cc1,0.4%,0,.,2,-2.4,0.4
O=C(NC(=S)Nc1cc(Cl)ccc1O)c1cccc(Br)c1,4.2%,-20,.,-3,-0.7,23
CC(C)C(=O)NC(=O)COC(=O)/C=C/c1cccs1,-0.6%,-1,-1,-2,-0.6,-0.1
O=c1cc(-c2ccccc2)nc2nc(-c3ccco3)[nH]n12,4.3%,-19,4,-8,0.8,0.8
COc1cccc(NC(=O)N2CCCC(C(=O)NCc3ccc(F)cc3)C2)c1 (stereo unspecified),-1.7%,-5,6,8,0.3,0.0
CCOC(=O)CSc1nnc(C)c(C)n1,0.4%,-29,4,2,1.6,-0.6
Brc1c(CSc2nncn2-c2ccccc2)nc2ncccn12,-1.7%,-5,-4,5,4.2,-0.3
O=C(Cc1nnc(NC(=O)Nc2ccccc2F)s1)NCc1ccccc1,6.3%,3,7,8,0.7,-0.3
O=C(NCC(=O)N1CCN(c2ccccc2O)CC1)c1ccc(Br)o1,-2.6%,11,-9,1,-0.9,2.1
CN(CCO)c1cc(N(C)CCO)c([N+](=O)[O-])cc1[N+](=O)[O-],0.2%,-7,-20,-8,-3.4,-0.5
O=C(COC(=O)c1cccnc1Nc1ccccc1F)NCc1ccc2c(c1)OCO2,?,-10,1,5,-4.0,2.5
O=C(CN1CCOCC1)Nc1nc2ccc(Br)cc2s1,.,-5,-3,0,1.8,-0.1
C/C(=N/NC(=O)c1cc(-c2cccc([N+](=O)[O-])c2)n[nH]1)c1ccc(Cl)cc1,12%,-6,-2,7,4.1,0.5
COC(=O)C1=C(C)N(Cc2ccccc2)C(=O)/C1=C\c1ccco1,7.7%,-31,?,-13,-3.4,-0.1
